Arbovirus anti = antivirals against arbovirus infection, primary screen, cell-based, full library, 10K replicate subset. arbovirus infection cell-based antiviral screen. inhibition, % at 10 µM. 0.37% of 200,000 active. AID 1251, 2008;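 active means inhibition from about 30%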;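 further: bluetongue infection of BSR cells; cell survival read as ATP light after 72 h; 0% = infected wells without compound and 100% = uninfected wells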
YopH PTP inh = YopH tyrosine phosphatase inhibitors, primary screen, biochemical, fluorescence Ex485/Em525. YopH tyrosine phosphatase [Yersinia enterocolitica]. inhibition, %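 (about 10 µM by stock and volumes)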. 0.16% of 140,000 active. AID 898, 2007;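 active means inhibition of 50% or more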;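 further: controls were vehicle for no effect and minimum signal wells for full effect; inactives centre near -20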
Mtb growth = M. tuberculosis H37Rv growth inhibitors, H37Rv strain (AID 1626) | M. tuberculosis H37Rv growth inhibition; higher % means a stronger effect | inhibition, % at 10 µM; hits with a dose series show IC50 in µM | 0.95% of 220,000 active;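 active means confirmed in a dose series; inconclusive means inhibition above 80% but not taken into the dose series; inactive means below 80% or under 30% at every dose of the series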;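 further: bacteria incubated seven days before Alamar blue readout; 0% = bacteria only wells and 100% = bacteria with antibiotic wells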
Mtb bLac sens = beta-lactam sensitization of Mtb H37Rv, H37Rv; M. tuberculosis H37Rv growth with meropenem, percent inhibition; hits of this screen are not shown here; inhibition, % at 25 µM; 0.27% of 330,000 active; AID 434955, 2010;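 active means about 74% or more and at least 40 points above the plate without the antibiotic, then above 30% in a dose series; inconclusive means first-round hits that could not be retested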;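 further: growth measured after seven days incubation then overnight dye step; 0% = bacteria only wells and 100% = bacteria with antibiotic; twin plates without the antibiotic show which effects depend on it; some results filed as inactive read as strong as hits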
RecA intein inh = Mtb RecA intein splicing inhibitors, primary screen, biochemical, fluorescence, HTS. Protein RecA (Mycobacterium tuberculosis (strain ATCC 25618 / H37Rv)), P9WHJ3. cell-free RecA intein splicing. inhibition, %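 (about 9 µM by stock and volumes)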. 0.75% of 290,000 active; in the data active means inhibition above about 30%; inconclusive means no clear call, values can overlap the other calls;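 further: 0% = vehicle wells and 100% = reference inhibitor control wells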
Target sequence (P9WHJ3 whole entry, looked up): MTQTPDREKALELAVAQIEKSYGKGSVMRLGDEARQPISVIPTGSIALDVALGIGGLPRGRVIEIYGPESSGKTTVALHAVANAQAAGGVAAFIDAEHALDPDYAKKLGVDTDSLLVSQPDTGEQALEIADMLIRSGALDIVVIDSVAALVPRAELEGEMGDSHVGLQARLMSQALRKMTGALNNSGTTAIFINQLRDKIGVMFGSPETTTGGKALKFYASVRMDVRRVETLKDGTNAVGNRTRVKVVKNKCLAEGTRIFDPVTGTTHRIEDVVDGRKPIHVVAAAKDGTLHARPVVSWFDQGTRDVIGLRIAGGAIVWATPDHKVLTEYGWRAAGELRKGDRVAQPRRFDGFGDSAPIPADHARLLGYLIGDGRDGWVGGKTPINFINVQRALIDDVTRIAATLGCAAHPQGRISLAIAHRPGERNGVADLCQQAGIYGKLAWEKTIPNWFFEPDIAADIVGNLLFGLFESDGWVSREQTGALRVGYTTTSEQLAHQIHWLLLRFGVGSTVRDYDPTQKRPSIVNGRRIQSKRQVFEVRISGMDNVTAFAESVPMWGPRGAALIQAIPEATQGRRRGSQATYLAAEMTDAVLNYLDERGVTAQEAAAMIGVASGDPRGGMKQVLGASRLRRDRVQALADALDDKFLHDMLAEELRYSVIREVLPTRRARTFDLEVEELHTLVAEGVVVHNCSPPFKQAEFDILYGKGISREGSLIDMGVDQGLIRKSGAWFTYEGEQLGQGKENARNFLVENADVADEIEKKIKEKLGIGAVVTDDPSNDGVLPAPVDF
Arbovirus anti repeat = recorded beside Arbovirus anti, whose call it bears; inhibition, %; measured here: 10K subset replicate screen; many hits read low in the repeat;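 first of two repeat runs on a subset; 0% = infected and 100% = uninfected wells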
An asterisk follows results filed as active; ? = inconclusive; · = not tested or not shown.

SMILES	Arbovirus anti	YopH PTP inh	Mtb growth	Mtb bLac sens	RecA intein inh	others
Cc1cccc(-n2nnc(C(=O)N3CCc4ccccc4C3)c2N)c1	-6	-51	10%	5	2.9
O=C(Nc1cccc(F)c1)c1coc(=O)c(Br)c1	1	-24	5%	4	0.7
O=C(COc1ccc2c3c(c(=O)oc2c1)CCCC3)NCc1ccccn1	·	·	·	5	-2.1
COc1cccc(/C=C/C(=C2/C(=O)N(c3ccccc3)N=C2C)c2ccc(Br)cc2)c1OC	-27	-21	0%	4	2.0
O=[N+]([O-])c1ccc(CCn2ccnc2)cc1	·	·	·	-8	-1.0
CCCCCCCCOC(=O)CCc1c(C)[nH]c(=S)[nH]c1=O	3	-8	-3%	0	-1.4
Cc1ccc(NC(=O)c2cc(-n3cnnc3)ccc2Cl)cc1	4	-19	-9%	-7	1.5
Cc1ccc(CC(=O)N2CCN(C(=O)C3CCCO3)CC2)cc1 (stereo not given)	·	·	·	6	-0.7
Cc1ccc(C(=O)c2ccc([N+](=O)[O-])cc2)c(C)c1	-6	3	7%	-6	2.9
Fc1ccc(Oc2ccnc(Cl)n2)c(Cl)c1	·	·	·	-5	-7.2
CC(C)CCn1c(SCCc2ccccc2)nc2c1c(=O)[nH]c(=O)n2C	-14	-37	8%	49	-0.9
CCCN1CCC(=NNC(=O)c2ccc(Br)o2)CC1	-1	-18	1%	1	-0.7
CC1Cc2ccccc2N1C(=O)Cn1c(=O)oc2cc(S(=O)(=O)N3CCCCC3)ccc21 (stereo not given)	-11	-29	4%	-6	-1.3
O=C(Oc1coc(CSc2nnc(NC(=O)c3cccs3)s2)cc1=O)c1ccccc1	-20	-23	-20%	3	5.0
CCc1nnc(NC(=O)CN2CCCC(C)C2)s1 (stereo not given)	·	·	·	-1	0.9
CC(CNC(=O)c1cc(Cl)ccc1[N+](=O)[O-])NC(=O)c1cc(Cl)ccc1[N+](=O)[O-] (stereo not given)	-5	14	-2%	-10	0.0
CCS(=O)(=O)N1CCC(C(=O)NCCN2CCN(Cc3ccccc3)CC2)CC1	3	-18	-13%	0	2.3
Cc1cccn2c(=O)nc(SCC(=O)N3CCC(C)CC3)nc12	·	·	·	-7	-0.7
CSc1ccc(S(=O)(=O)NCC(=O)OC2CCOC2=O)cc1[N+](=O)[O-] (stereo not given)	·	·	·	3	-2.2
O=C(O)CSc1sc(=S)sc1SCC(=O)O	0	-1	4%	-4	-8.0
O=C(O)c1cccc(-n2cccc2/C=C\[N+](=O)[O-])c1	4	·	2%	-9	-2.6
COc1cc(C(=O)Nc2nnc(CC(=O)N3CCOCC3)s2)cc(OC)c1OC	4	35	6%	-4	0.5
CCCc1ccc2oc(C(=O)N3CCN(c4cnccn4)CC3)c(C)c2c1	·	·	·	28	9.3
O=C(Cc1ccc(Cl)cc1)NCCS(=O)(=O)N1CCN(c2ccccc2)CC1	·	·	·	-6	-3.6
CCCS(=O)(=O)N1CCN(C(=O)c2ccc(-c3ccccc3)cc2)CC1	6	-13	-11%	0	·
Next part
SMILES	Arbovirus anti	YopH PTP inh	Mtb growth	Mtb bLac sens	RecA intein inh	others
S=C(NCCC1=CCCCC1)Nc1ccc(Cl)cc1	7	-19	4%	-2	-1.9
CCN(CC)CCn1cnc2c1c(=O)[nH]c(=O)n2Cc1ccccc1	·	·	·	-3	0.3
O=C(C1CCC(CNS(=O)(=O)c2cccc3cccnc23)CC1)N1CCc2ccccc21 (stereo not given)	-15	-50	8%	-2	5.1
Cc1cc(C)n(-c2nc3c(c(=O)[nH]c(=O)n3C)n2CC(O)c2ccccc2)n1 (stereo not given)	1	-19	-7%	2	-0.8
CCSc1nc(O)c(C2OC(=O)c3c2ccc(OC)c3OC)c(=O)n1CC (stereo not given)	3	-18	-3%	1	0.2
O=S(=O)(c1ccccc1)N1CCN(Cc2ccccc2C(F)(F)F)CC1	6	-16	2%	2	·
COc1ccc2oc(C(=O)Nc3nccs3)c(C)c2c1	·	·	·	-11	-2.1
Cc1ccc(C(C(=O)Nc2ccc(C(C)C)cc2)N(C)C(=O)c2ccc(=O)[nH]c2)cc1 (stereo not given)	9	·	6%	1	0.2
CCOc1ccc(N2CC(C(=O)NCc3ccc(C)n3C)CC2=O)cc1 (stereo not given)	-1	·	2%	-6	-2.0
CCCS(=O)(=O)N1CCC(C(=O)N2CCN(C(=O)OCC)CC2)CC1	-1	-27	-4%	-8	·
CCOC(=O)C1CCN(C2CCN(Cc3nc(-c4ccccc4)no3)CC2)CC1	-1	·	2%	-2	·
Cc1onc(-c2ccccc2)c1CNC(=O)CN1C(=O)c2ccccc2C1=O	·	·	-11%	4	-3.0
Cc1nc(NCc2ccccc2)c2cc[nH]c2n1	·	·	-4%	2	0.1
CCn1c(SCC(=O)NC2CCCCC2)nnc1-c1cccs1	4	20	-10%	8	0.4
CC(C)(O)C(=O)NN(Cc1ccccc1)c1ccccc1	-2	-27	7%	-2	-1.4
CC(C)N1C(=O)c2ccccc2C1C(=O)NC1CCCCCC1 (stereo not given)	5	-56	-12%	-14	-0.1
COc1ccc(C(c2nnnn2Cc2ccccc2)N2CCN(c3ccccc3)CC2)cc1 (stereo not given)	1	-21	2%	7	1.9
Cc1occc1-c1nnc(SCC(=O)Nc2ccccc2)n1CCc1ccccc1	8	6	7%	-9	3.9
Cc1nc2cc(CO)ccc2n1C	1	-5	0%	-3	0.4
O=C(OCC(=O)N1CCC(c2ccccc2)=N1)c1ccc([N+](=O)[O-])s1	·	·	·	100	-0.1
O=C(NN1CCOCC1)c1ccc(Cl)s1	3	·	3%	-1	1.1
CC(=O)Nc1nnc(SCc2ccccc2F)s1	0	-5	-2%	4	0.7
O=C(CCc1nnc(Cc2ccc3c(c2)OCO3)o1)NCc1nc2ccccc2s1	0	·	-2%	·	2.3
COc1ccc(CN2CCn3nc(C(=O)NC(C)C)cc3C2=O)cc1	6	·	0%	7	-1.4
Cc1ccc2cc(/C=C/C(=O)c3ccco3)c(Cl)nc2c1	·	·	19µM*	96	-0.4
Going on with the list:
SMILES	Arbovirus anti	YopH PTP inh	Mtb growth	Mtb bLac sens	RecA intein inh	others
COc1ccc(N2C(=O)CC3(CCCC3)CC2=O)cc1	-1	-22	6%	1	-1.6
COc1ccc(C(=O)NCCCN2CCOCC2)cc1	·	·	·	-7	1.5
Cc1nn(C)cc1CN(C)C(=O)CCc1nnc(CCC2CCCCC2)o1	1	·	-9%	-3	0.7
C[C@H]1CN(CCc2ccccc2)C(=O)[C@@H]1CC(=O)NCc1ccccc1	·	·	·	-19	1.3
COc1ccc(NC2CCCN(C(=O)COc3ccc(C)cc3)C2)cc1 (stereo not given)	·	·	·	?	-1.0
Cc1ccc(NC(=O)N2CCCC(c3nc(-c4ccc(F)cc4)no3)C2)cc1 (stereo not given)	·	·	-1%	-7	4.8
CCOc1ccc(CN(CC)C(=O)c2ccc3c(c2)[nH]c(=O)c(=O)n3CC)cc1OC	·	·	·	1	-0.1
Cn1c(CC(=O)Nc2ccccc2Cl)nnc1SCC(=O)NC1CCCCC1	·	·	·	2	-4.0
COc1cccc(C(=O)Nc2ncc3c(n2)CC(C)(C)CC3=O)c1	-7	-1	-10%	0	-1.1
NC(=O)CCn1c2ccccc2c2ccccc21	2	·	8%	-9	·
CCc1c(C)sc(NC(=O)CC#N)c1C#N	7	-35	-6%	-3	-1.9
COc1ccc(S(=O)(=O)N2CCC(C(=O)NCc3ccncc3)CC2)cc1	·	·	·	-4	-2.0
CCC(=O)c1cn(Cc2ccccc2)c2ccccc12	-16	·	2%	-2	1.0
CC(C)n1c(SCC(=O)N2CCCC2)nc2c1c(=O)n(C)c(=O)n2C	-3	-28	-11%	0	-1.3
COc1ccc(C(=O)CSc2nnc(CNC(=O)c3ccco3)n2C)cc1	1	·	0%	4	1.6
NC(=O)c1ccc(Nc2ccc3nonc3c2[N+](=O)[O-])cc1	·	·	·	-1	-1.1
FC(F)(F)c1cccc(-c2nc3nc(Cl)c(Cl)nc3[nH]2)c1	·	·	39%	14	-3.8
Cc1ccc(NC(=O)OCCN2CCN(Cc3ccccc3)CCC2=O)cc1C	5	-11	-4%	-17	-1.1
Cn1cc(C(=O)c2ccc(Cl)cc2Cl)cc1C(=O)N/N=C(\N)COc1ccccc1	-20	4	-20%	0	3.4
C/C(=N\NC(=O)c1nnn(-c2nonc2N)c1CSc1ccc(Cl)cc1)c1ccco1	·	·	·	-1	-1.2
Cc1oc(-c2ccc(Cl)cc2)nc1CN1CCC(C(=O)N2CCN(Cc3ccccc3)CC2)CC1	-37	·	·	0	5.3
O=C(COc1ccc(S(=O)(=O)Nc2ccc(Cl)cc2)cc1)N1CCOCC1	·	·	·	7	-25
COc1ccc(CCNC(=O)CS(=O)(=O)Cc2nc(-c3ccccc3Cl)oc2C)cc1OC	·	·	·	-1	-7.7
Cc1[nH]c2ccccc2c1-c1csc(N)n1	·	·	·	7	-2.3
COCCN1C(=O)N(c2cccc(OC)c2)C(=O)C1CC(=O)Nc1ccc(Cl)cc1 (stereo not given)	·	·	·	2	0.1

Of the compounds above, 2 contain a COOH group:
SMILES	Arbovirus anti	YopH PTP inh	Mtb growth	Mtb bLac sens	RecA intein inh	others
O=C(O)CSc1sc(=S)sc1SCC(=O)O	0	-1	4%	-4	-8.0
O=C(O)c1cccc(-n2cccc2/C=C\[N+](=O)[O-])c1	4	·	2%	-9	-2.6

More structures:
SMILES	Arbovirus anti	YopH PTP inh	Mtb growth	Mtb bLac sens	RecA intein inh	others
COc1ccc(NC(=O)CN(C)C(=O)c2cn(-c3ccccc3)nc2-c2ccc(Cl)cc2)cc1	·	·	·	84	-0.4
CN1CCc2c(sc3c2C(=O)NC(c2ccc(-c4cccc(Cl)c4)o2)N3)C1 (stereo not given)	-15	·	·	0	-166	Arbovirus anti repeat=-5
CCC(=O)N/C(=N\OCc1ccc(F)cc1)c1nonc1NC(=O)CC	6	-16	-12%	?	0.9
CC(C)=CCN1CCN(Cc2cnc(-c3ccccc3)s2)CC1CCO (stereo not given)	-10	·	5%	-9	2.5
COc1ccc(NC(=O)c2ccc(NCCCN3CCOCC3)c([N+](=O)[O-])c2)cc1	6	-14	-5%	0	-1.4
COc1ccccc1-c1nnc(NC(=O)c2cccc(N3C(=O)CCC3=O)c2)o1	2	-23	-4%	6	2.7
O=C(NCCCNC(=O)c1ccccc1Br)c1ccccc1Br	·	·	·	2	1.3
Cc1ccc(Cl)c2sc(NC(=O)C3=COCCO3)nc12	·	·	·	11	1.5
CCCNC(=S)NCCN1CCCCC1	-3	-21	-5%	-9	-1.9
Cc1cc(C)c2nc(NC(=O)c3ccc([N+](=O)[O-])o3)sc2c1	·	·	·	7	-4.3
CN(C)N1C(=O)CC(C)(c2ccc([N+](=O)[O-])cc2)C1=O (stereo not given)	·	·	·	-1	1.7
COc1ccc(-c2nnn(CC(=O)c3c[nH]c4ccccc34)n2)cc1OC	18	-40	-3%	-10	-2.6
CCC/C=N/Nc1nc2ccccc2s1	-10	·	?	100	-4.2
Cc1ccc(-c2nnc(Sc3nc4ccccc4o3)c3ccccc23)cc1	-30	6	0%	4	77*
N#Cc1ccc(N2Cc3ccccc3C2=NC(=O)c2cccs2)cc1	-1	-26	0%	-1	6.4
O=S(=O)(c1cc(Cl)ccc1Br)N1CCOCC1	6	-24	-3%	8	1.2
COCCCC1CCN(Cc2nc(Cc3ccccc3Cl)no2)CC1	-4	·	1%	-1	3.4
Cc1ccc2nsnc2c1S(=O)(=O)Nc1ccccc1C(=O)O	·	·	·	3	0.4
COCCN1C(=O)c2ccccc2C(C(=O)NCC2CCCO2)C1c1c[nH]c2ccccc12 (stereo not given)	-1	35	-7%	-8	-1.3
COc1cccc(/C=N/NC(=O)C(=O)N2CCCC2)c1OC	4	-29	·	-15	-4.7
CCOc1cc2[nH]c(=S)n(C(C)C)c(=O)c2cc1OCC	-9	-14	2%	8	0.2
O=C(CSc1nnc(C2CC2)n1CC1CCCO1)Nc1cccc(Cl)c1 (stereo not given)	·	·	·	-7	1.5
COc1ccc(CC(=O)NCC2CCCN(Cc3ccc(OC(F)(F)F)cc3)C2)cc1 (stereo not given)	·	·	·	0	1.0
CC(C)c1ccc(OCC(=O)NC2CC(C)(C)NC(C)(C)C2)c(Br)c1	·	·	·	1	-1.0

By substructure, those above containing a CF3 group
SMILES	Arbovirus anti	YopH PTP inh	Mtb growth	Mtb bLac sens	RecA intein inh	others
O=S(=O)(c1ccccc1)N1CCN(Cc2ccccc2C(F)(F)F)CC1	6	-16	2%	2	·
FC(F)(F)c1cccc(-c2nc3nc(Cl)c(Cl)nc3[nH]2)c1	·	·	39%	14	-3.8
COc1ccc(CC(=O)NCC2CCCN(Cc3ccc(OC(F)(F)F)cc3)C2)cc1 (stereo not given)	·	·	·	0	1.0

Screens deposited in PubChem by several laboratories.

Not all compounds are listed; rates above refer to the full screens.
